Compound activity (PubChem)
AID504770 – growth inhibition of E. coli YBA685, primary screen, V. cholerae RctB inhibitors; E. coli YBA685 rctB-dependent plasmid, OD600 growth, 3 h; hits give low values; z-score (no concentration beside the values); 130,000 compounds, 0.27% hits;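 active = z-score under -2 on both plates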;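 note: wells of about 30 µL received 100 nL stock; score is relative to mean and SD of the test wells; the first replicate is given; strong numbers were not always called active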
Ba CapD inh – Bacillus anthracis CapD inhibitors, primary screen, biochemical, fluorescence intensity; purified CapD enzyme, fluorescence intensity read-out; hits give low values; some hits fall short of the stated cut; z-score (concentration not given with the values); 140,000 compounds, 0.23% hits; AID 492967, 2010;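 active = z-score under -4 in either of two replicates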;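 note: stock transfer was 100 nL into about 40 µL; score is relative to mean and spread of the plate; one replicate is shown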
Active calls of the source: *; i = inactive; · = no result given. Not all compounds are listed. The share of hits here may be higher or lower than overall.

Values run as follows: AID504770 | Ba CapD inh
O=C(Cc1c(F)cccc1Cl)OCN1C(=O)c2ccccc2C1=O
  -1.1 | ·
COc1ccc(-c2noc(CN(C)C(=O)Cc3ccc(OC)c(OC)c3)n2)cc1
  0 | ·
O=C(NCCCN1CCCC1=O)c1ccccc1NS(=O)(=O)c1ccc(F)cc1
  -0.05 | ·
Cc1ccc(-c2nc3cccc(C)n3c2Nc2ccc3c(c2)OCCO3)o1
  -0.35 | 89.9
Cc1ccc(-n2nc(C(=O)N3CCCC3)c3c4ccccc4n(C)c3c2=O)cc1
  0.2 | 0.44
COc1ccc(CNC(=O)c2cnn3c(C(F)(F)F)cc(-c4ccc(OC)c(OC)c4)nc23)cc1
  · | -0.165
CCOc1ccc(C(N)CC(=O)OC)cc1 (centres undefined)
  1.35 | 4.51
O=C(CSc1ncn[nH]1)NC(c1ccccc1)c1ccccc1
  -0.6 | 0.62
COc1ccc(C2=C(Nc3ccc4oc5ccccc5c4c3)c3ccccc3C2=O)cc1
  · | 0.115
CC1CCN(C(=O)Cn2c(SCC(=O)NC(C)(C)C)nc3ccccc32)CC1
  -0.45 | ·

A different layout for 4 compounds above:
O=C(CSc1ncn[nH]1)NC(c1ccccc1)c1ccccc1
- AID504770: -0.6
- Ba CapD inh: 0.62
CC1CCN(C(=O)Cn2c(SCC(=O)NC(C)(C)C)nc3ccccc32)CC1
- AID504770: -0.45
- Ba CapD inh: ·
COc1ccc(-c2noc(CN(C)C(=O)Cc3ccc(OC)c(OC)c3)n2)cc1
- AID504770: 0
- Ba CapD inh: ·
O=C(Cc1c(F)cccc1Cl)OCN1C(=O)c2ccccc2C1=O
- AID504770: -1.1
- Ba CapD inh: ·

Part of the list above in order of molecular weight, highest first.
Values run as follows: AID504770 | Ba CapD inh
COc1ccc(CNC(=O)c2cnn3c(C(F)(F)F)cc(-c4ccc(OC)c(OC)c4)nc23)cc1
  · | -0.165
O=C(NCCCN1CCCC1=O)c1ccccc1NS(=O)(=O)c1ccc(F)cc1
  -0.05 | ·
CC1CCN(C(=O)Cn2c(SCC(=O)NC(C)(C)C)nc3ccccc32)CC1
  -0.45 | ·
COc1ccc(-c2noc(CN(C)C(=O)Cc3ccc(OC)c(OC)c3)n2)cc1
  0 | ·
Cc1ccc(-n2nc(C(=O)N3CCCC3)c3c4ccccc4n(C)c3c2=O)cc1
  0.2 | 0.44
O=C(CSc1ncn[nH]1)NC(c1ccccc1)c1ccccc1
  -0.6 | 0.62

(next part)
Values run as follows: AID504770 | Ba CapD inh
CC(C)(C)c1ccc(N=Cc2ccccc2O)cc1
  -0.55 | -0.23
CCCCNC(=S)Nc1ccc(C(C)C)cc1
  · | -0.905
NC(=O)COC(=O)Cc1cccc2ccccc12
  1.3 | ·
N#CC1C(=O)NC(=S)C(C(N)=O)C12CCCCC2 (centres undefined)
  0.3 | ·
O=C(Nc1ccc(N2CCN(Cc3ccccc3Cl)CC2)cc1)c1ccc2c(c1)OCCO2
  0.55 | 1.31
CN(C)/C=C(\C#N)c1nc2ccccc2[nH]1
  -1.05 | ·
COc1ccc(Oc2c(Br)cnn(-c3ccc(C)cc3)c2=O)cc1
  · | -0.09
CC(=O)/C=C(\O)c1ccc(Cl)cc1
  -1.25 | ·
CC(C)(C)c1ccc(-c2noc(CCn3c(=O)oc4ccccc43)n2)cc1
  1.6 | 9.88
COc1ccccc1C1CCN(S(=O)(=O)c2ccc(F)c(F)c2)CC1
  · | 0.46

Further results
Values run as follows: AID504770 | Ba CapD inh
COc1cccc(NC(=O)CSc2nnc(SCC(=O)Nc3cccc(OC)c3)s2)c1
  · | 0.08
CC(C)Cn1cnc2c1c(=O)n(CC(=O)N1CCc3ccccc31)c(=O)n2Cc1ccccc1
  -0.25 | ·
O=C(Nc1cccc(-c2nc3ccccc3[nH]2)c1)C1=COCCO1
  -0.65 | 0.72
N/C(CC(=O)Nc1cc(Cl)cc(Cl)c1)=N\O
  · | 1.05
CC(C)(C)C(=O)Nc1ccccc1SCc1ccc(S(C)(=O)=O)cc1
  · | -0.525
CC1Cc2ccccc2N1C(=O)CSc1nncn1C (centres undefined)
  -1.2 | 0.18
CCOC(=O)c1ccc(NC(=O)Cn2ncc3c4ccccc4n(Cc4ccccc4)c3c2=O)cc1
  0.4 | 1.5
CCOC(=O)c1c(/N=C/c2ccccc2O)sc(C)c1C
  -0.25 | 0.11
S=C(c1ccc(-c2ccccc2)o1)N1CCN(c2ccccc2)CC1
  -0.45 | ·
CC(C)OC(=O)c1cc2c(ccn2-c2ccc(F)cc2)n1CCC#N
  1.05 | ·

Remaining list, next part
Values run as follows: AID504770 | Ba CapD inh
O=C1CS/C(=N\S(=O)(=O)c2ccccc2)N1Cc1ccccc1
  -0.8 | ·
COc1cc(/C=C2/SC(=S)N(c3ccc4ccccc4c3)C2=O)ccc1O
  0.1 | 0.015
CCC(=O)Nc1cccc(-c2cn3ccccc3n2)c1
  -0.8 | 104
COc1ccc2[nH]c(C)cc(=O)c2c1
  -0.85 | 68.9
CC(=O)NCCNC(=O)OCCc1ccc(Br)cc1
  · | 1.19
COC(CNC(=O)c1cnn2c(C)c(Cc3c(C)cc(C)cc3C)c(C)nc12)OC
  -0.65 | 0.03
N#C/C(=C\c1cccc(Cl)c1)C(=O)C1CC1
  · | 0.495
CC(C)NC(=O)N1c2ccccc2Sc2ccccc21
  -0.1 | 0.04
CC(C)C(=O)Nc1ccc(N2CCN(c3ccc(F)cc3)CC2)cc1
  -0.5 | 0.05
CC(=O)N1CC(=O)Nc2ccc(Cl)cc2C1c1ccccc1 (centres undefined)
  · | -0.115

Following part:
Values run as follows: AID504770 | Ba CapD inh
O=C(CCCC(=O)c1ccccc1)Nc1ncn[nH]1
  1.6 | -0.585
Cc1cc(N2CCC(C)CC2)nc2cccc(O)c12
  -0.3 | 59
CCOc1cc(N2CCOCC2)c(OCC)cc1NC(=O)C1=NN(c2ccccc2)C(=O)CC1
  0.6 | ·
COc1ccccc1C1CCN(C(=O)c2ccccc2C)CC1
  · | -0.03
Cc1ccc(C(=O)CC(C(=O)O)n2cncn2)cc1 (centres undefined)
  -0.2 | 0.61
O=C1C=C(c2cccs2)C[C@H](c2cccs2)[C@H]1n1cnc([N+](=O)[O-])n1
  · | 5.87
COc1ccc(NC(=O)CSC2=NCCN2)cc1
  -0.7 | -0.865
CCc1noc(CC)c1C(=O)O
  0.45 | ·
Cc1ccc(-c2nnc(SCC(=O)NCC3COc4ccccc4O3)o2)cc1 (centres undefined)
  0 | ·
Cc1c(C#N)c(NC(=O)CSc2nnc(-c3ccccc3)n2-c2ccc(Cl)cc2)n(CC2CCCO2)c1C (centres undefined)
  -0.15 | ·

Next entries follow.
Compound	AID504770	Ba CapD inh
CCn1c(SC)nnc1C1CCN(C(=O)N2CCCC2)CC1	-0.4	·
COC(CNC(=O)c1ccc2c(c1)ncn2-c1cccc(F)c1)OC	-0.1	0.045
O=C(NCc1ccco1)/C(=C\c1cccc(Br)c1)NC(=O)c1ccccc1	·	0.03
CC(C)(CO)NC(=S)NCc1ccco1	2.05	-0.62
O=C(NNC(=O)c1ccc(O)cc1)OCCc1ccc(Cl)cc1Cl	·	0.11
O=c1[nH]c2ccccc2nc1-c1c[nH]n(-c2ccccc2)c1=O	-1	·
CC1CCc2c(sc3nc(Cc4nc5ccccc5n4C)[nH]c(=O)c23)C1 (centres undefined)	1.15	·
COc1cccc(C2=N/C(=C\c3ccccc3OC)C(=O)N2c2ccc(C)cc2Br)c1	·	-0.795
Cc1cccc2cc(C#N)c(SCC(=O)NCC3CCCO3)nc12 (centres undefined)	0.4	·
COc1ccc(N(Cc2ccccn2)C(=O)c2ccc(F)cc2)cc1	0.5	-0.56
CC1=CCC2C(=O)N(c3ccccc3)C(=O)C2C1 (centres undefined)	-0.45	0.63
CCOc1ccc(NC(=O)C(=O)NCCN2CCN(C(=O)c3ccc(OC)cc3)CC2)cc1	·	0.055
CCCCOc1ccc(C(=O)O/N=C(\C)c2ccco2)cc1	-0.75	0.05
c1ccc(Oc2ccc(-c3ccnc4ncnn34)cc2)cc1	-0.65	31.1
O=CNc1nonc1NC(=O)c1ccccc1Cl	1.55	-0.52
N#CC(C#N)=NNc1cc(C(F)(F)F)cc(C(F)(F)F)c1	·	-4.72
CCn1nc(C)c(NC(=O)CCSc2nc(-c3ccco3)cc(C(F)(F)F)n2)c1C	-0.5	·
COc1ccc(C2C(C#N)=C(N)OC3=C2C(=O)CC(c2ccccc2)C3)cc1OC (centres undefined)	·	-0.76
O=C(Cn1ccn(Cc2ccccc2)c(=O)c1=O)Nc1ccccc1	-1.05	1.13
O=C(Nc1ccc2oc(-c3ccc(F)cc3)nc2c1)c1ccc2c(c1)OCCO2	·	0.985
N#Cc1c(N)nc(SCC(=O)Nc2ccc([N+](=O)[O-])cc2)c(C#N)c1-c1ccco1	·	0.41
Cn1cc(CCC(=O)NCc2ccccc2Cl)c2ccccc21	0.8	0.025
NNc1nc(Nc2cccc([N+](=O)[O-])c2)nc(N2CCCCC2)n1	·	-0.505
Cc1ccc(OCC(=O)Nc2ccccc2OC(F)F)c(C)c1	-0.25	10
Cc1cc(NC(=O)NCCNc2ncccc2C(F)(F)F)c(C(F)(F)F)o1	-0.95	10.7

Next section
Compound	AID504770	Ba CapD inh
c1cc2c(cc1CNc1ccc3c(c1)CCC3)OCO2	0.2	0.83
CC(C)CNC1=NCCS1	2.1	-0.375
CC1CCCC(C)N1Cc1cc2c3c(c(=O)oc2cc1O)CCC3 (centres undefined)	0.05	·
CC(C)(C)Sc1nc(SCc2ccc(Cl)cc2)nc2c1CCCC2	·	0.075
O=C(O)/C=C/c1ccc(SC(F)F)cc1	-0.45	·
CN(C)S(=O)(=O)c1ccc(=O)n(CC(=O)N2CCSC2c2ccccc2F)c1 (centres undefined)	-1.2	·
CC1CCN(CC(=O)c2cccc(C(F)(F)F)c2)CC1	-0.2	·
Cc1ccc(CC(=O)NCC(O)c2ccccc2)cc1 (centres undefined)	-0.15	0.59
COc1cc(/C=C2\C(=O)NC(=O)N(c3ccc(C)cc3)C2=O)c([N+](=O)[O-])cc1OC	·	0.29
CCOC(=O)c1ccc(-c2ccc(C=C3C(=O)NC(=O)NC3=O)o2)cc1	-0.1	0.34
C/C(=N\O)c1ccccc1Cl	-1.2	-0.055
N=c1c(C(N)=O)cc2c(=O)n3ccccc3nc2n1C1CCCC1	-0.75	·
C=CCn1c(SCC(=O)c2ccc3c(c2)NC(=O)CO3)nc2cc(Cl)ccc2c1=O	1.55	·
C=CCN1C(=O)/C(=C2/C=CC=CN2C)SC1=S	-1.05	-3.96
CC1Sc2ccc(S(=O)(=O)C(C)CC(=O)N3CCN(c4ccccc4F)CC3)cc2NC1=O (centres undefined)	-0.5	-1.69
CC(NC(N)=O)C12CC3CC(CC(C3)C1)C2 (centres undefined)	-0.15	0.68
CCOc1ccc2c(c1)-c1c(ssc1=S)C(C)(C)N2C(=O)c1cccc2ccccc12	·	-1.21
CC(C)c1ccc(-c2nc(O)cc(=O)s2)cc1	-0.4	-0.2
O=C(COC(=O)c1nc(Cl)ccc1Cl)c1ccc2[nH]c(=O)[nH]c2c1	0.2	·
CCc1ccccc1N1CC(c2nc3ccccc3n2CCc2ccccc2)CC1=O (centres undefined)	-1.05	0.24
Clc1ccc2nc(N3CCCCC3)nc(-c3ccccc3)c2c1	-0.25	-0.61
Nc1nc(SCC(=O)NC2CCCCC2)n[nH]1	0.65	·
CCOc1cc(/C=C2\N=C(c3ccc(C)cc3)OC2=O)cc(Br)c1OC(C)=O	·	1.64
O=C(c1ccc(NS(=O)(=O)c2cccc3cccnc23)cc1)N1CCCCC1	-0.5	-0.005
COc1cc(OC)cc(C(=O)Nc2nc(-c3ccccc3)cs2)c1	-0.65	0.215

(further entries)
Compound	AID504770	Ba CapD inh
Cc1ccc(OCCN2CCN(c3nc(NCc4ccccc4)c4ccccc4n3)CC2)cc1	-0.85	70.5
COc1ccc(Cc2nnc(C(=O)N3CCN(c4ccc(C)cc4C)CC3)o2)cc1OC	0.1	-0.28
CCOC(=O)Cn1cnc2c(sc3nc(C)cc(C)c32)c1=O	1.35	1.22
COc1ccc(C(=O)NC2=C(C)N(C)N(c3ccccc3)C2)cc1	0.05	i
Cn1c(SCC(=O)Nc2ccccc2C#N)nnc1-c1ccccc1	-0.8	-0.565
CN(Cc1cccs1)C(=O)c1ccc2c(c1)OCO2	0.3	·
O=C(O)CSc1cc(-c2ccccc2)nc(SCC(=O)O)n1	0.25	0.23
COc1ccc(C2(C(=O)N3CCCC3)CCCC2)cc1OC	1.55	·
CC(C)(C)OC(=O)N1CCC(C(=O)Nc2ccc(OC(F)(F)F)cc2)CC1	-0.35	·
COc1ccc(C2=NOC(C(=O)N(C)Cc3ccccc3)C2)cc1OC (centres undefined)	0.45	0.045
NNC(=O)CNC(c1ccccc1)c1cc(Br)ccc1N (centres undefined)	0.5	0.215
Cc1ccccc1Nc1nc(N)nc(CSc2nc3ccccc3c(=O)n2C)n1	-0.05	·
O=C(NCc1nnc2c(Cl)cc(C(F)(F)F)cn12)c1ccccc1	0.35	0.73
CS(=O)(=O)N(CC(=O)N1CCC(C(N)=O)CC1)c1cccc(C(F)(F)F)c1	-0.4	·
CCOc1ccc2[nH]c3nc(SCC4CCCO4)nnc3c2c1 (centres undefined)	-0.45	·
CC(=O)c1ccc(NC(=O)c2cc(-c3ccccc3)nc3ccccc23)cc1	·	-0.26
COc1cccc(NC(=S)NC(=O)c2ccccc2)c1	·	-0.86
CCn1c(-c2cccnc2)n[nH]c1=S	-0.05	0.14
CC(C)N1CSC(=S)N(Cc2ccccc2)C1	-1.85	-0.435
N/C(=N\c1nc2c(c(=O)[nH]1)CCC2)Nc1cccc(Cl)c1	-0.15	·
CN(C)/C=C1\CCCCN2C(=O)/C(=C\c3ccc(Cl)cc3)N=C12	-0.05	·
O=C(O)COCC(=O)N1CCN(C(c2ccccc2)c2ccccc2)CC1	·	-0.215
O=C1NC(=S)NC(=O)C1=Cc1ccco1	-2	-1.75
CC(C)CN(CC(C)C)C(=O)c1ccc2c(c1)NC(=O)/C(=C/c1ccccc1)S2	0	3.81
